Source: PubChem BioAssay
PrP UTR inh = inhibition of PrP 5' UTR reporter expression; cell-based PrP 5' UTR mRNA reporter, plate reader; inhibition, % (no concentration beside the values); 340,000 tested, 0.35% active;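 active means every replicate at 50% or more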;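 further: 0 = median of the neutral control wells; tested in H4 reporter cells; numbers are from one replicate; inactives centre near -14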
BJeLR viability = BJeLR cell viability loss | 300,000 tested, 0.17% active | AID 1554 | inhibition, % (no concentration beside the values) | BJeLR (HRASV12) viability, CellTiter-Glo ATP luminescence, 48 h; reference of the scale not given here;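 active means replicate mean above 50%; inconclusive means above 50% but judged a plate artefact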;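 further: 50 nL library stock added to about 25 µL; numbers are from one replicate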
Mtb hypoxia inh = Mtb hypoxia fluorescent reporter inhibition; M. tuberculosis hypoxia-regulated fluorescent reporter, fluorescence; fluorescence inhibition, % (concentration not given with the values); 300,000 tested, 0.1% active;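 active means 35 to 45% if threefold the growth effect, above 45% if 1.5-fold the growth effect; inactive means the rest, general growth blockers included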;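 further: wells of about 50 µL received 100 nL stock; 0% = vehicle wells and 100% = reference inhibitor wells; whole bacteria with a GFP reporter of the hypoxia response; strong numbers were not always called active; many hits fall short of the cut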
ugtP null kill = kills S. aureus RN4220 lacking UgtP. S. aureus RN4220 ugtP deletion, OD600 growth, 16 h; some inactives read as strong as hits. growth inhibition, % (no concentration beside the values). 330,000 tested, 0.54% active. AID 1259309;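 active means z-score under -3 and OD600 up to 0.15 on both plates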;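 further: plate controls were untreated wells for no effect and antibiotic for full effect; wells of about 80 µL received 100 nL stock; the first replicate is given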
Sa RN4220 lethal = kills Staphylococcus aureus RN4220. S. aureus RN4220 growth, OD600, 16 h. inhibition, % (no concentration beside the values). 330,000 tested, 0.33% active;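 active means z-score of -3 or lower and OD600 up to 0.18 on both plates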;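 further: plate controls were untreated cells for no effect and reference antibiotic for full effect; stock transfer was 100 nL into about 80 µL; one replicate is shown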
Autofluor counter = counter-screen for toxin protease inhibitors: compound fluorescence | compound autofluorescence counterscreen, microsphere flow cytometry; stronger effect = higher value | 360,000 tested, 3.1% active | fluorescence intensity (concentration not given with the values) | AID 624483;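 active means at least 3 SD above the mean of all compounds, about 16000 in these data; inconclusive means too few beads counted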;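 further: 100 nL of 1 mM stock went into each well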
Mtb hypoxia inh growth = also measured in Mtb hypoxia inh; calls as there; growth inhibition, %; measured here: M. tuberculosis growth (absorbance);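 0% = vehicle and 100% = reference antibiotic; read after six days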
Active calls of the source: *; ? = inconclusive; . = not tested or not shown; & = joins results of further samples.

The line under a structure holds: PrP UTR inh	BJeLR viability	Mtb hypoxia inh	Mtb hypoxia inh growth	ugtP null kill	Sa RN4220 lethal	Autofluor counter
O=S(=O)(NNc1ccc(F)cc1F)c1cccc(Cl)c1
  -25	-3	4	-5	4	2.8	3891
COc1ccc(C2(C)NC(=O)N(CC(=O)NC3CCCC3)C2=O)cc1OC (centres undefined)
  2	.	0	-1	3	1.6	4172
CC1C(=O)C(C)C(c2cccs2)NC1c1cccs1 (centres undefined)
  -14	-5	9	11	7	-2.7	3261
NC(=O)C1CCCN(C(=S)NCc2ccc3c(c2)OCO3)C1 (centres undefined)
  38	7	0	2	6	3.5	3297
O=C(N1CCN(c2ccc(F)cc2)CC1)C1(c2cccs2)CCOCC1
  -3	-5	4	3	33	1.8	2059
CCOC(=O)c1cccc(NC(=O)CCn2cccc2)c1
  -17	-2	8	13	11	1.6	2947
CCOC(=O)Cn1nnc(-c2ccc(S(C)(=O)=O)cc2)n1
  -31	6	0	7	5	3.4	23651*
CC(C)COc1ccc(C(=O)Nc2cc(S(=O)(=O)N3CCOCC3)ccc2N2CCCC2)cc1
  -31	.	5	2	5	3.5	5838
O=C(NN=Cc1ccco1)c1cc(-c2ccccc2)nc2ccccc12
  .	.	1	1	-1	-0.6	.
Cc1ccccc1N1CC(C(=O)Nc2ccc(S(=O)(=O)N3CCOCC3)cc2)CC1=O (centres undefined)
  -21	-1	3	-7	9	-0.9	4248
O=c1oc(-c2ccco2)nc2ccccc12
  -8	-4	10	5	7	8.3	3132
Cc1ccc2nc(CSc3nc(C)nc4c3oc3ccccc34)[nH]c2c1
  -31	.	4	12	23	8.2	3692
Cc1oc(-c2cc(F)ccc2F)nc1CN1CCCN(C(=O)c2ccco2)CC1
  -20	-5	13	10	5	6.9	4353
COc1ccc(CN2C(CC(=O)O)c3ccccc3S2(=O)=O)cc1 (centres undefined)
  .	.	11	20	6	5.0	.
Cc1cc(-c2nnc(SCC(=O)N3C(C)CCCC3C)o2)no1 (centres undefined)
  -27	-2	-5	6	-2	6.0	8207
CCOC1OC(C(=O)N2CCN(Cc3ccc4c(c3)OCO4)CC2)=CC(c2csc3ccccc23)C1CCCO (centres undefined)
  .	.	3&17	6&11	8&9	4.3&-0.9	.
O=CN1CCN(C(=O)CN2C(=O)c3ccccc3C2=O)CC1
  -7	2	-8	5	5	6.0	4835
COc1ccc(C)cc1NC(=O)CC1COc2ccccc2O1 (centres undefined)
  9	-13	12	4	0	3.2	4714
Cc1cc(O)c2c(c1)C(=O)C13C(=C2O)C(=O)[C@H]2[C@@H](O)[C@@H]1[C@H]1[C@H](O)[C@@H]3C(=O)C3=C(O)c4c(O)cc(C)cc4C(=O)C312 (some centres undefined)
  -23	.	.	.	97*	98*	6035
O=C(COc1ccc(-c2ccccc2)cc1)N1CCN(C(=O)c2cccnc2)CC1
  -13	-3	.	.	0	4.4	2439
CCOc1ccc(NS(=O)(=O)c2cc(C(=O)NCCN3CCOCC3)ccc2C)cc1
  -18	.	10	5	1	2.1	4414
Cc1cccc(N(CC(=O)NC2CC2)S(=O)(=O)c2ccc(Cl)cc2)c1
  -11	-1	0	6	6	1.8	6153
COc1ccc2cc(CN(CCO)C(=O)c3ccccc3F)c(=O)[nH]c2c1
  -17	4	1	11	-2	-9.7	2598
CCOc1ccc(CCNC(=O)COC(=O)c2ccc(C)c([N+](=O)[O-])c2)cc1OCC
  -22	0	2	-4	2	-0.3	5850
Cc1ccc(S(=O)(=O)N2CCN(C(=O)CN3C(=O)NC4(CCCCC4)C3=O)CC2)c(C)c1
  -23	1	0	-4	9	0.0	6528
CCc1cccc(CC)c1NC(=S)NCCc1c(C)[nH]c2ccc(C)cc12
  -13	-10	3	5	5	5.7	4540
CCc1nnc(NC(=O)c2ccc(S(=O)(=O)N3CCCC(C)C3)cc2)o1 (centres undefined)
  -7	-1	2	-6	0	32	?
C=CCn1c(CC(=O)Nc2cccc(OC)c2)nnc1SCC(=O)NC1CCCCC1
  3	4	-6	4	-3	-5.1	21047*
[O-][N+]1=C(c2cccs2)CN(O)C1
  -7	-1	.	.	-4	1.8	4368
[O-][n+]1onc2c1CCc1c-2nc(-c2ccccc2)n1OCc1ccccc1
  -3	18	-5	-22	5	13	.

Entries of single compounds, quoted from the list. Order of screens: PrP UTR inh, BJeLR viability, Mtb hypoxia inh, Mtb hypoxia inh growth, ugtP null kill, Sa RN4220 lethal, Autofluor counter
CCOC(=O)Cn1nnc(-c2ccc(S(C)(=O)=O)cc2)n1 across the screens: -31, 6, 0, 7, 5, 3.4, 23651*
O=CN1CCN(C(=O)CN2C(=O)c3ccccc3C2=O)CC1 across the screens: -7, 2, -8, 5, 5, 6.0, 4835
CCc1cccc(CC)c1NC(=S)NCCc1c(C)[nH]c2ccc(C)cc12 across the screens: -13, -10, 3, 5, 5, 5.7, 4540
Cc1ccc2nc(CSc3nc(C)nc4c3oc3ccccc34)[nH]c2c1 across the screens: -31, ., 4, 12, 23, 8.2, 3692
CC1C(=O)C(C)C(c2cccs2)NC1c1cccs1 (centres undefined) across the screens: -14, -5, 9, 11, 7, -2.7, 3261

(listing goes on)
The line under a structure holds: PrP UTR inh	BJeLR viability	Mtb hypoxia inh	Mtb hypoxia inh growth	ugtP null kill	Sa RN4220 lethal	Autofluor counter
O=S(=O)(NN=Cc1ccc(-c2ccccc2Cl)o1)c1ccccc1
  .	.	7	9	-15	5.5	.
COc1cc(NC(=O)c2cccs2)c(C(=O)OCC(=O)NC(=O)NCc2ccccc2)cc1OC
  -10	1	-1	2	-5	-2.6	3259
CCOc1ncccc1C(=O)Nc1nnc(C)s1
  -37	-7	5	6	3	0.4	4359
O=C(CNC(=O)c1ccco1)NCC(=O)OCC(=O)c1ccc(Cl)c([N+](=O)[O-])c1
  -1	-2	5	2	9	0.3	5843
Cc1ccnn1CC(=O)N/N=C/c1ccc2c(c1)OCO2
  -1	5	.	.	.	.	7319
Cc1c(CN2CCC(n3nccc3NC(=O)c3cccc(F)c3)CC2)cnn1C
  -1	6	8	10	0	0.3	5101
COc1cccc(CC(NC(C)=O)C(=O)NC2CCN(S(=O)(=O)c3cccc4ccccc34)CC2)c1 (centres undefined)
  -5	1	0	-5	-2	10	13047
COc1ccc(-c2cc(C(=O)NCC3CCCO3)c3cc(C)ccc3n2)cc1 (centres undefined)
  -17	-4	-6	-3	-5	3.7	3559
Nc1nc(Cl)cc(Sc2ccc(F)cc2)n1
  -24	11	.	.	-4	2.2	2203
O=C(Nc1ccccc1Oc1ccccc1)c1ccc(Br)o1
  5	-6	.	.	.	.	2553
C=C1CCN(C(C)C(=O)NCc2ccc(OC)cc2)S(=O)(=O)c2ccccc21 (centres undefined)
  .	.	20	13	1	4.9	.
O=C(Nc1nncs1)C1(c2ccccc2)CCCC1
  -2	-3	.	.	2	2.5	4314
CCOc1cc(NC(=O)c2cccs2)c(OCC)cc1NC(=O)CCC(=O)NCCN1CCOCC1
  -26	2	1	4	-1	1.1	4560
COc1ccc(NC(=O)c2cc(-c3ccncc3)nc3ccccc23)c(OC)c1
  -7	.	3	8	-1	2.8	3951
Cc1ccc(Cl)cc1N1CCN(C(=O)c2cc3c(=O)[nH]c4ccccc4c3n2C)CC1
  -3	-22	1	0	-12	7.3	2165
O=c1[nH]c2cc3c(cc2cc1C(c1nnnn1Cc1ccccc1)N1CCCCCC1)OCCO3 (centres undefined)
  -18	-3	6	7	-10	15	17658*
CCN1C(=O)/C(=C\N2CCN(c3cccc(Cl)c3)CC2)SC1=S
  -14	4	1	3	-21	-5.3	3177
COc1ccc(-c2sc3cc(OC)c(OC)cc3c2C#CCCO)cc1
  -16	.	11	6	-12	-9.9	3842
CC(=O)c1cccc(NC(=O)C(C)OC(=O)CCn2c(C)csc2=O)c1 (centres undefined)
  -18	.	-2	-4	3	-2.5	3482
O=C(N1CCCCC1)N1CCC(c2nc3ccccc3[nH]2)CC1
  -10	1	11	9	-3	4.6	4445
CN1C(=O)c2cccc3c(S(=O)(=O)Nc4ccccc4F)ccc1c23
  -35	-1	5	4	5	9.2	3530
NC(=O)/C(=C\c1ccco1)NC(=O)c1ccc(Br)o1
  -17	6	8	2	7	2.9	5383
COCc1cc(C)nc(OCC(=O)N/N=C/c2ccc(-c3cc([N+](=O)[O-])ccc3Cl)o2)c1C#N
  -10	-8	.	.	.	.	2257
Cc1nn(-c2ccccc2)c2[nH]c(=O)c(CNCC3CCCO3)cc12 (centres undefined)
  -13	-3	.	.	9	7.8	3235
COC(=O)CC=CC(C)C(C=NOC(C)c1cn(C2COCC2O)nn1)NS(=O)(=O)c1ccc(C)cc1 (centres undefined)
  .	.	6	6	-8	7.6	.
CCOC(=O)Cn1nnnc1CN(CCc1ccccc1)Cc1cc2cc(CC)ccc2[nH]c1=O
  -13	8	5	2	-15	8.0	8076
O=C(Nc1ccccc1)[C@@H]1[C@@H]2C(=O)N(c3ccc(F)cc3)C(=O)[C@@H]2[C@H]2C=CC=NN21
  -17	-2	-7	2	9	3.6	4230
O=C(COc1ccc([N+](=O)[O-])cc1)Nc1cc(S(=O)(=O)N2CCCCC2)ccc1N1CCCCC1
  -20	-9	0	-6	0	2.8	6462
Cc1cc(N2C(=O)CC(N3CCN(c4ccc(C(=O)c5cccs5)cc4)CC3)C2=O)no1 (centres undefined)
  -27	0	.	.	-7	-5.0	4864
O=C(NCC(c1cccs1)N1CCOCC1)c1cnc(Cl)c(Cl)c1 (centres undefined)
  -21	.	2	1	5	2.9	8242
CC(=O)c1cc(C#N)c(N2CCOCC2)nc1C
  -22	-6	8	5	6	2.3	5859
CCC(=O)Nc1ccc(Oc2ccc3c(c2)C(=O)N(c2ccc(O)cc2)C3=O)cc1
  -7	2	-8	2	-8	3.2	21982*
CN(CC(CC(=O)O)c1ccccc1)S(=O)(=O)c1ccc(Br)cc1 (centres undefined)
  -17	-8	.	.	8	5.5	6103
O=C(/C=C/c1ccc2c(c1)OCO2)Nc1nc(-c2ccccc2)cs1
  -9	1	.	.	-2	-18	2972
CC1=NNC(=O)C1Oc1ccccc1 (centres undefined)
  -11	8	9	2	2	2.3	4255
CCOc1cccc(-c2c(C(=O)N/N=C(\C)c3ccccn3)nnn2-c2nonc2N)c1
  49	27	.	.	.	.	5572
CCn1c(Cc2c(C)[nH]c3ccccc23)n[nH]c1=S
  -26	-6	12	9	-1	4.6	3543
O=S(=O)(c1ccc(F)cc1)c1nc(-c2ccccc2F)oc1N1CCCCC1
  -4	-7	0	7	-9	-2.8	20089*
CCC(C)c1ccc(OCC(=O)NNC(=O)C2CCCCC2)cc1 (centres undefined)
  -24	-16	0	0	10	-0.2	4898
COc1ccccc1N1C(=O)N(CC(=O)C(C)(C)C)c2ccccc2S1(=O)=O
  -6	1	5	3	8	5.6	3874
O=C(Nc1ccc([N+](=O)[O-])c(NC(=O)C2CCCO2)c1)C1CCCO1 (centres undefined)
  -5	-26	-4	2	-2	1.1	2363
CCOC(=O)C1(CC)CC(CSc2nc3ccccc3[nH]2)OC1=O (centres undefined)
  -19	-11	.	.	0	0.8	4618
O=C(Nc1ccc(F)cc1)N1CCCN(c2ccc(C(F)(F)F)cn2)CC1
  -4	-4	5	4	-2	2.8	.
CCCn1nc(C(=O)Nc2cc(OCC)c(N3CCOCC3)cc2OCC)c2ccccc2c1=O
  -13	.	2	2	1	11	3788
Cc1cc(Nc2cc(F)ccc2C)n2ncnc2n1
  -16	-3	.	.	7	2.4	4257
O=c1c2ccccc2nc(-c2ccc(Cl)c(Cl)c2)n1O
  2	-3	.	.	41	65	2194
CC(CN1c2ccccc2Sc2ccccc21)N(C)C (centres undefined)
  -11	-2	1	12	-4	4.6	6378
Cc1occc1C(=O)Nc1ccc(S(=O)(=O)N2CCCC2)cc1
  -23	-2	11	1	0	2.0	9800
CC(C)(C)c1ccc2c(c1)N(CC(=O)N1CCCC1)C(=O)CO2
  -9	-2	-15	7	-3	0.0	3918
CCOc1nc(Oc2cccc(C(=O)O)c2)nc(Oc2cccc(C(=O)O)c2)n1
  -7	-1	.	.	-6	1.5	2833
